Rango dissoc inh: inhibition of RanGTP-driven Rango-importin beta dissociation | Biochemical FRET Rango-importin beta, RanGTP-induced dissociation | AID 540253 | Potency, µM (top dose mostly 46.1 µM), inactives show at the top dose activity change, negative = inhibition | 340,000 tested, 0.071% active | O95149+P62826; active means falling FRET ratio curve, often poorly fitted, with flat reads before Ran was added; inconclusive means other falling curves, or compound fluorescence or quenching; inactive means flat or rising ratio curve;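 further: potency means the concentration at half of the fitted maximal effect; % of control where 0% means no effect; nearly all actives have a fitted effect of over 45% in size; -100% = wells without RanGTP and RCC1; the record marks most hits as doubtful in a second field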
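Recombinant Rango FRET biosensor (EYFP–snurportin 1 IBB–cerulean CFP10) at 0.1 uM premixed with 0.25 uM importin beta in PBS, 1 mM DTT, 0.02% Tween-20, 0.1% BSA. Compound added 5 min; RanGTP-RCC1 (0.6 uM Ran, 2 mM GTP, 0.2 uM RCC1) then triggers release, read at 45 min.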
miR-21 FLuc: miR-21 reporter, rising signal. HeLa miR-21 FLuc reporter, luciferase, 48 h. 340,000 tested, under 10 active. Potency, µM (top dose mostly 38.3 µM), without a hit: at the top dose reporter change, positive = more light; active = well fitted rising curve with a large enough effect; inconclusive = small, poorly fitted or top-dose-only effect; inactive = no such curve, though single readings can be large or run the other way;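 further: % of control where 0% means no effect; miR-21 action dims this reporter so a rising signal means less miR-21 action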
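HeLa cells endogenously expressing miR-21, stably carrying CMV-driven firefly luciferase with a downstream miR-21 binding site, 2000 cells/well. Titrations up to approximately 40 uM, 48 hours; luciferase luminescence read.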
GLA inh pH 4.5: inhibitors of human alpha-galactosidase A at pH 4.5; P06280; purified enzyme, 4-MU-alpha-Gal fluorescence, pH 4.5; activity change, negative = inhibition, % at 105 µM; 230,000 tested, under 10 active; AID 1467; inconclusive = small, poorly fitted or top-dose-only inhibition, or a rising curve; inactive = flat fitted curve, though single readings scatter; no compound was filed as active;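 further: 0% = full activity with enzyme and -100% = basal without enzyme; dose as in the result columns while the protocol names 77 µM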
Target sequence (P06280 whole entry, looked up): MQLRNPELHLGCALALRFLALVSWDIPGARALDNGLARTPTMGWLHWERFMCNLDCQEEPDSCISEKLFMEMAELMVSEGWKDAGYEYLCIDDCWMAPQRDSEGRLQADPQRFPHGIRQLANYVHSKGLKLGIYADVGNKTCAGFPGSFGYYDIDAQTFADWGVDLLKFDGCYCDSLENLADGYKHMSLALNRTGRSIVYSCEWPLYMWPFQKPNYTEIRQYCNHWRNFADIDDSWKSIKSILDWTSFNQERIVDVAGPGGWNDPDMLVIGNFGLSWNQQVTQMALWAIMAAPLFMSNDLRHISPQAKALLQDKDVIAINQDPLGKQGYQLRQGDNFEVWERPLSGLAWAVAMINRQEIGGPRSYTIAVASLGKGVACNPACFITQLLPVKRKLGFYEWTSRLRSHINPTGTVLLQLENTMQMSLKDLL
Rango-impB inh: Rango-importin beta binding inhibition | Q14974 | 340,000 tested, 0.031% active | Rango CFP/YFP FRET sensor + importin beta, 45 min | Potency, µM (titrated, usually from 92.2 µM), for the others: at the top dose inhibition of complex formation; active = rising FRET ratio curve, often small or poorly fitted; inconclusive = mostly compound fluorescence or quenching in the first reads; inactive = flat curves in all reads;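 further: potency means the concentration at half of the fitted maximal effect; 0% = DMSO wells and 100% = buffer wells lacking importin beta; nearly all actives have a fitted effect of over 15% in size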
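Inhibition scored from the CFP 486 nm/YFP 530 nm FRET ratio 45 min after adding 0.125 microM importin beta to 50 nM Rango biosensor preincubated 5 min with compound (room temperature, PBS with DTT, Tween-20, BSA). No-importin wells as positive control.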
* = called active by the depositor; u = inconclusive; x = not tested or not shown; & = joins results of further samples; [ ] = another dose, or the depositor's remark.

GLA inh pH 4.5,miR-21 FLuc,Rango dissoc inh,Rango-impB inh,smiles
x,-1%,-2%,-2.2%,CCCOP(=O)(c1ccc(N(C)C)cc1)C(O)c1ccc(Br)cc1 (stereo not drawn)
-7,2%,-15%,7.5%,CC1(C)OC(=O)C(=CNC(=O)c2c(F)cccc2F)C(=O)O1
1,0%,-18%,-1.2%,CN(C1CC(C)(C)NC(C)(C)C1)S(=O)(=O)CC12CCC(CC1=O)C2(C)C (stereo not drawn)
x,x,0%,-0.5%,COc1ccc(C(=O)NCC(C)(C)CNC(=O)c2ccc(OC)cc2)cc1
-4,8%,-15%,-1.8%,Cc1cccc(C2=NC(C(F)(F)F)(C(F)(F)F)c3c(n(-c4ccc(F)cc4)c(=O)[nH]c3=O)N2)c1
-6,-33%,-5%,-2.3%,O=C(Oc1ccc(-c2ccccc2)cc1)N1CCOCC1
14,7%,4%,4.5%,O=C(NC(=S)Nc1ccc(S(=O)(=O)N2CCCC2)cc1)c1cccs1
-3,2%,-1%,-0.2%,Cc1ccc(NC(C)C(=O)N/N=C/c2c[nH]c3ccccc23)cc1 (stereo not drawn)
x,-1%,-17%,-1.5%,COC(=O)C1=CN(c2cccc(Cl)c2)C=C(C(=O)OC)C1c1cccc(OC)c1
x,-1%,u,0.4%,COc1ccc(N(CC(=O)NC2CCCCC2)C(=O)c2snc(C(N)=O)c2N)cc1
-2,5%,0%,1.5%,CC(NC(=O)CNC(=S)N(Cc1ccccc1)Cc1cccnc1)c1ccccc1 (stereo not drawn)
-25,-22%,0%,-2.7%,Cc1cc(C(F)F)n2ncc(C(=O)NCc3ccccc3C(F)(F)F)c2n1
-4,0%,0%,0.5%,Cc1ccc(CCN2CC(C(=O)NCCCOC(C)C)CC2=O)cc1 (stereo not drawn)
x,5%,13%,1.3%,C=CCOc1cccc(C(=O)N2CCCC(Nc3ccc4c(c3)OCCO4)C2)c1 (stereo not drawn)
-3,-3%,u,u,CCn1c2ccccc2c2cc(NC(=O)c3ccc(=O)oc3)ccc21
-15,14%,1%,3.3%,COc1ccc2[nH]c(C(=O)N3CCCN(Cc4ccc(F)cc4)CC3)cc2c1
x,x,1%,-1.5%,CCOC(=O)[C@@H]1[C@H]2COc3ccc(Br)cc3[C@@H]2N2C(=O)N(c3ccc(C)cc3)C(=O)[C@@]12C
1,-9%,17%,-0.2%,C/C(CC(=O)Nc1ccccc1F)=N\NC(=O)Cc1ccc(Cl)cc1
x,x,-9%,-2.0%,COc1cc(C(=O)OCC(=O)Nc2c(C)n(C)n(-c3ccccc3)c2=O)c([N+](=O)[O-])cc1OC
-2,0%,-9%,-0.7%,Cc1nn(C)c(Cl)c1NC(=O)OCc1ccc(F)cc1
-7,0%,10%,-1.5%,NC(=O)C1(NC(=O)[C@@H]2CC3(CC(c4cccc(NC(=O)[C@@H]5CCC(=O)N5)c4)=NO3)CN2C(=O)Cc2ccc(Cl)cc2)CC1 (stereo partly drawn)
x,-54%,3%,1.7%,C/[N+]([O-])=C/c1c(OCc2ccccc2)ccc2ccccc12
8,-12%,x,x,Cc1cccn2c(=O)c(C=Nc3c(C)n(C)n(-c4ccccc4)c3=O)c(N3CCCC3)nc12
-4,-2%,-16%,-3.2%,O=C(CN1CCN(c2ccccn2)CC1)NCc1cccs1
-3,-5%,15%,0.8%,COc1ccc(C2(CNC(=O)c3cccs3)CCOCC2)cc1

The closing 2 entries of the section above come first, to join the parts.
GLA inh pH 4.5,miR-21 FLuc,Rango dissoc inh,Rango-impB inh,smiles
-4,-2%,-16%,-3.2%,O=C(CN1CCN(c2ccccn2)CC1)NCc1cccs1
-3,-5%,15%,0.8%,COc1ccc(C2(CNC(=O)c3cccs3)CCOCC2)cc1
-1,-2%,2%,-0.5%,O=C(c1ccc2c(c1)OCO2)N1CCC2(CC1)Oc1ccc(F)cc1C(=O)C21CC(c2cccnc2)=NO1 (stereo not drawn)
-8,2%,5%,-1.0%,Cc1c(N)c(C(C)(C)C)cc(C(C)(C)C)c1[N+](=O)[O-]
1,-9%,-6%,1.1%,COC(=O)CCC(=O)Nc1cccc(C(=O)Nc2cccc(Cl)c2)c1
x,7%,-11%,-0.1%,O=C(NCC1CCCO1)c1cccc(NC(=O)c2ccc(Br)cc2)c1 (stereo not drawn)
x,x,-7%,-6.4%,COc1ccccc1OCCNC(=O)C1CC(=O)N(c2ccccc2OC)C1 (stereo not drawn)
3,-1%,0%,0.4%,O=C1C2Sc3[nH]c(=O)sc3C(c3ccccc3)C2C(=O)N1c1ccc(Cl)cc1 (stereo not drawn)
2,-7%,-12%,1.4%,CCCn1c(SCC(=O)Nc2ccc3c(c2)OCCO3)nnc1-c1ccco1
x,x,-14%,0.8%,O=C1CCC/C=C/C[C@@H](CC(=O)N(CCO)Cc2ccccc2)C(=O)NC[C@H](c2ccccc2)O1
7,20%,-8%,-1.7%,O=[N+]([O-])c1cccc(NC(=S)NCCc2ccccc2)c1
x,0%,0%,4.7%,Cc1cccc(-n2c(=O)c3ccccc3n3c(=S)[nH]nc23)c1C
x,x,u,u,COc1cc(S(=O)(=O)Nc2ccc3c(c2)C(=O)N(C)C3=O)ccc1NC(C)=O
5,u,1%,2.3%,COc1ccc(-n2cc(-c3ccc(OC(F)F)cc3)[n+]3c2CCCCC3)cc1
1,8%,12%,0.6%,COc1ccc(-c2nc(N)ncc2Oc2ccccc2Br)c(O)c1
x,3%&-1%,7%,-0.6%,Cc1ccc(Cl)cc1N1CCN(S(=O)(=O)c2ccc3c(c2)CC(=O)N3C)CC1
-6,-5%,2%,-1.7%,COc1cccc(N(C(=O)c2cnccn2)C(C(=O)NC2CCCCC2)c2ccc(Cl)cc2)c1 (stereo not drawn)
x,-4%,-1%,-2.9%,COc1ccc(S(=O)(=O)Nc2c(C)n(C)n(-c3ccccc3)c2=O)c(Cl)c1Cl
x,0%,0%,4.9%,NC(=O)c1nsc(C(=O)N(c2ccccc2)C(C(=O)NC2CCCC2)c2cccs2)c1N (stereo not drawn)
x,-1%,-5%,-0.3%,CCCCCN(C(=O)CCC(=O)OCC(=O)N1C(C)CCCC1C)c1c(N)n(CCCC)c(=O)[nH]c1=O (stereo not drawn)
-18,-3%,17%,3.0%,CC1(C)NC(=O)N(CC(=O)OCC(=O)Nc2cccc(F)c2)C1=O
-2,-1%,-2%,-1.6%,COc1ccccc1NC(=S)N(CCc1ccc(OC)c(OC)c1)Cc1ccccn1
-9,7%,11%,0.1%,COc1ccc(C(=O)C[n+]2ccc3c(c2)nc(-c2ccccc2)n3C)cc1
3,1%,10%,-2.4%,Cc1cccc(C)c1NC(=S)N/N=C/c1ccccc1C(=O)O
x,x,-25%,-1.9%,O=C(CSc1ccccn1)N1CCN(S(=O)(=O)c2ccc(Cl)cc2)CC1
-2,-1%,1%,0.6%,O=C(N/N=C/c1cccnc1)c1ccc(Cn2cc([N+](=O)[O-])cn2)o1
x,x,-14%,-1.3%,CC1CCCCC1NC(=O)Cc1ccc(S(=O)(=O)N2CCOCC2)s1 (stereo not drawn)
x,x,6%,1.1%,Cc1csc(=O)n1CCC(=O)OCc1nnc(-c2ccc([N+](=O)[O-])cc2)o1
x,13%&15%,6%,-1.8%,Cc1cc(C)cc(NC(=O)Cn2nnc(C(=O)NCc3ccco3)c2N)c1
x,x,u,u,COc1cc(C(=O)NCCNC(=O)c2ccco2)cc(OC)c1OC
10,-12%,-3%,2.9%,Clc1ccc(OCCn2ccnc2)c2ccccc12
-3,-7%,-11%,-0.9%,O=C(Nc1ccc(S(=O)(=O)N2CCOCC2)cc1)c1cccs1
-9,2%,-1%,-2.1%,COc1ccc(C[C@H]2CN3C(=NC[C@@H]3C)N2CCNC(=O)CCC2CCCCC2)cc1
x,-1%,-10%,-1.1%,CCOC(=O)c1cccc(NC(=S)NC(=O)c2cccnc2)c1
0,-3%,3%,-2.4%,CCOc1ccc(/C=C2\SC(=S)N(CC(=O)N(CCO)C(C)(C)C)C2=O)cc1
x,x,9%,-0.5%,O=C1CC(c2cccc(O)c2)Oc2ccccc21 (stereo not drawn)
x,-6%,u,-0.7%,Cc1ccc(C)c(NC(=O)CCN2CCN(CCO)CC2)c1
-4,3%,16%,-6.0%,Cn1cc(C(=O)NCc2ccc(F)cc2)cn1
9,-17%,-4%,u,Cc1ccc(SCc2ccc(C(=O)Nc3cccnc3)cc2)cc1
x,-1%,31%,-6.1%,Cc1ccc(C)c(N(C(=O)c2csnn2)C(C(=O)NC2CCCC2)c2ccncc2)c1 (stereo not drawn)
x,u,15%,-3.2%,O=C(NCC1CCCCC1)C1(CC2CC(c3cccc(Br)c3)=NO2)CCNCC1 (stereo not drawn)
-2,-11%,8%,-0.7%,Cc1cc(N2CCCC(C(=O)Nc3cccc4ccccc34)C2)n2ncnc2n1 (stereo not drawn)
6[21.1 µM],-1%,-23%,1.3%,COc1cc2c(cc1OC)CN(CC(=O)NC(=O)NC(C)(C)C)CC2
x,6%,23%,1.8%,CCCc1cc(=O)n2nc(N3CCC(C(=O)N4CCN(c5cccc(OC)c5)CC4)CC3)sc2n1
11,1%,22%,0.3%,Cc1ccc(-c2ccc(CCC(=O)O)n2NC(=O)c2ccc([N+](=O)[O-])cc2)cc1
x,x,1%,-1.2%,CC(C)C[C@H]1CNC(=S)N1CC1CCCN1C[C@H](Cc1ccccc1)N1C[C@H](Cc2ccc(O)cc2)N(CC2CCCCCC2)C1=S (stereo partly drawn)
-7,-5%,-7%,-5.0%,Fc1ccc(-c2nnc(CN3CCC(c4nc5ccccc5s4)CC3)o2)cc1
x,-4%,0%,-0.1%,O=C(c1ccc2ccccc2c1)C1CCCN(C(=O)c2cccnc2)C1 (stereo not drawn)
-2,-24%,-10%,-7.3%,CCCCC1=NN(C(=O)c2cocc2C)C(O)(C(F)(F)F)C1 (stereo not drawn)
7,-13%,8%,7.2%,O=C(OCc1ccccn1)c1ccc(COc2ccccc2Cl)o1
0,-4%,19%,-0.6%,O=C(NCc1ccc(F)cc1)C(Cc1ccccc1)n1cccc1 (stereo not drawn)
x,x,-2%,-1.7%,CCCCN1CC(=O)N2[C@H]3c4cc(Br)ccc4OC[C@@H]3[C@H](C(=O)OCC)[C@]2(C)C1=O

Going on with the list.
GLA inh pH 4.5,miR-21 FLuc,Rango dissoc inh,Rango-impB inh,smiles
10,-18%,7%,3.4%,Cc1sc2ncnc(N3CCC(C)CC3)c2c1C
-6,-3%,u,-0.7%,Cc1ccc2cc(CN(Cc3ccco3)C(=S)NCC3CCCO3)c(=O)[nH]c2c1C (stereo not drawn)
x,-53%,4%,0.3%,CCOC(=O)/C=C/c1ccc2oc3ccccc3c(=O)c2c1
x,-3%,16%,-0.7%,O=C(CSc1nnc(CNC(=O)c2ccccc2)o1)NCc1ccc2c(c1)OCO2
5,-23%,-3%,-0.9%,CCC(=O)NCCc1cc2ccc(C)c(C)c2[nH]c1=O
x,x,-12%,-3.6%,O=c1cc(OCc2ccccc2)cc[nH]1

Retrieved by compound from the list above:
GLA inh pH 4.5,miR-21 FLuc,Rango dissoc inh,Rango-impB inh,smiles
-6,-3%,u,-0.7%,Cc1ccc2cc(CN(Cc3ccco3)C(=S)NCC3CCCO3)c(=O)[nH]c2c1C (stereo not drawn)
10,-18%,7%,3.4%,Cc1sc2ncnc(N3CCC(C)CC3)c2c1C
5,-23%,-3%,-0.9%,CCC(=O)NCCc1cc2ccc(C)c(C)c2[nH]c1=O

Screening results deposited in PubChem by National Center for Advancing Translational Sciences (NCATS).

Only part of the results is shown (hit frequency here may not be typical).
